gsp agonist: agonists of gsp mutant (McCune-Albright syndrome) | Potency, µM (top dose mostly 76.9 µM), for inactives: top-dose activation (cAMP increase), most hits filed as activators | AID 624287 | hit rate 0.13% among 340,000 | gsp mutant cells, cAMP HTRF, 30 min; control for the full effect not named in the record; active = well fitted activation curve with a large enough effect; inconclusive = small, poorly fitted or top-dose-only effect, or another doubt; inactive = no such curve, though single readings can be large or run the other way; cell line not stated here;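 further: phosphodiesterase inhibitor Ro 20-1724 added with compounds to block cAMP breakdown; potency means the concentration at half of the fitted maximal effect; nearly all actives have a fitted effect of over 60% in size; about a fifth of the inactives were tested at one dose only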
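Cells stably selected in G418 were plated at 2000/well, grown 16-24 hr, then given compounds in DMSO with the PDE inhibitor […] (300 uM solution added) for 30 min at 37C; cAMP was read by HTRF.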
Menin-MLL FL inh: menin-MLL binding inhibition, fluorescein peptide; AID 1766; Fluorescence polarization, fluorescein-MLL peptide displacement from menin; FP activity change, % at 61.4 µM; 290,000 tested, under 10 active; inconclusive = falling polarisation curve, or a change in total fluorescence; inactive = total fluorescence flat and polarisation flat or rising; no compound was filed as active; the % refers to the polarisation; negative = inhibition;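 further: % of control where 0% means no effect; inhibitors lower the polarisation; unlabelled MLL peptide was the positive control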
CtBP-E1A inh: inhibitors of CtBP/E1A interaction | AlphaScreen GST-E1A/His-CtBP binding, 1536-well; stronger effect = lower value; control for the full effect not named in the record | activity change, % (no concentration beside the values) | hit rate 0.49% among 340,000; in the data active means activity change below about -65%; inconclusive means about -30% to -65%; inactive means above about -30%; further: on the % scale 0 is the no-effect control and ±100 the full control effect; compound concentration not given in the record
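GST-E1A and His-tagged CtBP (125 nM each as 5X stock) were preincubated with pin-transferred compound for 2 h at 37 °C in the dark, then glutathione donor and nickel acceptor beads were added for 1 h before AlphaScreen reading.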
ClpP mod: qHTS Assay for Activators of ClpP | ATP-dependent Clp protease proteolytic subunit (Bacillus subtilis (strain 168)), P80244 | hit rate 1.9% among 340,000 | purified B. subtilis ClpP, FRET peptide cleavage, 20 min | Potency, µM (series often up to 57.5 µM), for the others: at the highest dose activity change, negative = active; active = well fitted falling curve with a large enough effect; inconclusive = small, poorly fitted or top-dose-only effect; inactive = no such curve, though single readings can be large or run the other way; further: potency means the concentration at half of the fitted maximal effect; the source files actives as falling curves though it sought activators and does not explain the sign; nearly all actives have a fitted effect of over 65% in size; many hits overshoot -100%
Target sequence (P80244 whole entry, looked up): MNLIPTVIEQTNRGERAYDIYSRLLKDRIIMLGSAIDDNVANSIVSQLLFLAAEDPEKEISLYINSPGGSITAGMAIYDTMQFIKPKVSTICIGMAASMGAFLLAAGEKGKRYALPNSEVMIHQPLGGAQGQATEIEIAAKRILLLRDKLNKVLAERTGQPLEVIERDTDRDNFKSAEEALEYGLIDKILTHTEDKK
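Buffer: 100 mM Tris/HCl pH8, 100 mM KCl, 0.05% low protease BSA, 2.5% glycerol, 0.01% Tween-20. ClpP 10 microg/mL final; 20 min RT; delta FRET normalized to ADEP and DMSO controls.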
TRPV1 potentiator: potentiators of human vanilloid receptor 1 (TRPV1); Q8NER1; TRPV1-expressing cells, Fluo-8 calcium influx, capsaicin EC20 potentiation; host cell line not named in the record; control for the full effect not named in the record; potentiation, % at 8.33 µM; hit rate 0.02% among 320,000; AID 540277; active means potentiation above 80%; inconclusive means 30% to 80%; inactive means below 30%; further: 0% is about no effect
Target sequence (Q8NER1 whole entry, looked up): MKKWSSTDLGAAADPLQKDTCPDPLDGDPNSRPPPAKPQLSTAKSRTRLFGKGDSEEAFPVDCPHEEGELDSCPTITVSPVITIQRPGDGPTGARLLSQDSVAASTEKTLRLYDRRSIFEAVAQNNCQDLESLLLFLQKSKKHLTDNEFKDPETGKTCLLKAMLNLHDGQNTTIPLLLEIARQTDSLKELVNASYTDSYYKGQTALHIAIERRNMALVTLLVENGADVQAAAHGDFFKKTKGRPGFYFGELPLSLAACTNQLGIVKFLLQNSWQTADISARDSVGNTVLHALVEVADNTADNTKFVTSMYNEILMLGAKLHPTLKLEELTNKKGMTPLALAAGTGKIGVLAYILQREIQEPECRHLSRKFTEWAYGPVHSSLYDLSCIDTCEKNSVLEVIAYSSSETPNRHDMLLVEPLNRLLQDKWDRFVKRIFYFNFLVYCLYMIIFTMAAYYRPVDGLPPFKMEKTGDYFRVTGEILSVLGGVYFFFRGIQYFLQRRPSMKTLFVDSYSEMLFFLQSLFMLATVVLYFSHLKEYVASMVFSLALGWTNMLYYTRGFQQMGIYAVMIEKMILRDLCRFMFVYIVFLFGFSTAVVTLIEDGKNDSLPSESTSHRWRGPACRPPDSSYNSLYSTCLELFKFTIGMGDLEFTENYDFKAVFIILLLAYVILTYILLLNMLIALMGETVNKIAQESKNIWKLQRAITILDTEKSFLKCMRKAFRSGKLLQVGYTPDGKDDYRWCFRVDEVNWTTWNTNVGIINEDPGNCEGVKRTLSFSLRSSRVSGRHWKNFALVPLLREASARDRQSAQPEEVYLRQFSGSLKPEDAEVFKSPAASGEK
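TRPV1-expressing cells were cultured overnight at 35.5C and loaded with Fluo-8 calcium dye for 40 to 90 min at room temperature. After a 10 s baseline, compound was added and calcium influx was read kinetically for 3 min (ex 480/em 520 nm).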
Sfp PPTase inh: inhibitors of Bacillus subtilis Sfp phosphopantetheinyl transferase. Biochemical Sfp PPTase activity, qHTS. Potency, µM, for inactives: max response, negative = inhibition, actives largely listed as inhibitors. hit rate 3.5% among 310,000. AID 1490; active means well fitted inhibition curve with a large enough effect; inconclusive means small, poorly fitted or top-dose-only effect, or another doubt; inactive means no such curve, though single readings can be large or run the other way;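 further: the enzyme is Sfp with the accession as filed and its product quenches rhodamine fluorescence; potency means the concentration at half of the fitted maximal effect; 0% = enzyme reaction without inhibitor and -100% = no enzyme wells; top concentration of the series not given in the record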
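Reaction rates are the 30-min fluorescence difference (ex 525, em 598 nm) in wells containing 15 nM Sfp, 5 uM rhodamine-CoA and 12.5 uM BHQ-2-YbbR at pH 7.6 with 10 mM MgCl2.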
gsp antag: antagonizes gsp, the McCune-Albright syndrome mutation | gsp-mutant cells, cAMP HTRF, 30 min; control for the full effect not named in the record | Potency, µM (top dose mostly 76.9 µM), for inactives: top-dose activity change, negative = inhibition, most hits filed as inhibitors | hit rate 0.4% among 340,000; active = falling curve of any shape with a large fitted effect; inconclusive = falling curve, mostly with a smaller effect; inactive = flat or rising curve; cell line not stated here;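 further: intracellular cAMP measured with PDE inhibitor Ro 20-1724 present during compound exposure; potency means the concentration at half of the fitted maximal effect; on the % scale 0 is the no-effect control and ±100 the full control effect; nearly all actives have a fitted effect of over 65% in size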
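Cells in G418 medium, seeded 16-24 h, 37C; buffer exchange to DPBS + 1 mM CaCl2, 0.5 mM MgCl2, 0.05% BSA; cpds in DMSO + […] (300 uM stock), 30 min 37C; HTRF cAMP detection.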
* hit, by the source's call; ? = inconclusive; . = not tested or not shown; [ ] = another dose, or the depositor's remark. No enrichment for hits (roughly 5.3% active in at least one column).

no. | mol | TRPV1 potentiator | gsp agonist | gsp antag | Menin-MLL FL inh | ClpP mod | Sfp PPTase inh | CtBP-E1A inh
1 | COc1cc2c(c(OC)c1O)C(=O)CO2 | ? | 18% | -6% | 1.7 | 2.0% | 6% | .
2 | COc1cc(C(=O)NNC(=O)COc2ccccc2Cl)ccc1OCC(=O)N1CCOCC1 | -13 | 22% | 0% | . | -2.2% | . | -9
3 | CC(=O)Nc1ccc(NC(=O)[C@@H]2CCCN2S(=O)(=O)c2ccc3c(c2)OCCO3)cc1 | 28 | -12%[15.4 µM] | 6% | 2.6 | -4.9% | 18% | -17
4 | CN(c1ccccc1)S(=O)(=O)c1ccc(C(=O)Nc2ccncc2)cc1 | -3 | -21%[15.4 µM] | -13% | . | -2.7% | . | -4
5 | COCCn1nnnc1C(c1cccc(C(F)(F)F)c1)N1CCOCC1 (stereo not drawn) | -5 | -11% | -1% | 1.9 | 2.7% | 1% | 6
6 | CC(=O)N(/C=C1\SC(=S)N(c2ccccc2)C1=O)c1ccccc1 | 16 | 3% | -4% | 13 | -2.3% | -9% | .
7 | CCCCC(CC)C(=O)NCc1ccc(F)cc1 (stereo not drawn) | -5 | -1% | -13% | 3.0 | -5.6% | 3% | 3
8 | O=C(NNS(=O)(=O)c1ccc(Br)cc1)c1ccccc1-n1cccc1 | 15 | ? | -2% | . | 1.0% | 28% | 5
9 | Cc1cc(C(=O)CSc2nc3ccccc3c(=O)n2C)c(C)n1CC1CCCO1 (stereo not drawn) | -8 | . | . | 2.1 | . | 16% | .
10 | CCSc1nc2sc3c(c2c(=O)[nH]1)CCCC3 | ? | ? | 3% | 0.7 | -5.2% | 9% | -1
11 | COCCN(C(=O)COC(=O)/C=C/c1ccc(SC)cc1)c1c(N)n(Cc2ccccc2)c(=O)[nH]c1=O | . | -22% | 1% | . | 22µM* | . | 2
12 | Cc1ccc2[nH]c3c(=O)n(CCN4CCOCC4)cnc3c2c1 | -3 | -27% | -4% | 4.4 | ? | -8% | -1
13 | COc1ccc(C(=O)Nc2cccc(S(=O)(=O)N(C)C)c2)cc1S(=O)(=O)N1CCOCC1 | . | . | -14% | . | -0.4% | . | -7
14 | CCOC(=O)c1cnn2c(C(F)(F)F)cc(-c3cn(C)nc3C)nc12 | -8 | -5% | -9% | 0.7 | ? | 20% | -7
15 | CN1CCN(c2nc3ccccc3nc2NS(=O)(=O)c2ccc(Br)cc2)CC1 | . | -1%[15.4 µM] | -4% | . | -2.4% | . | -15
16 | C=CCOC(=O)c1ccc(-n2cnc(C)n2)nc1 | -3 | 22%[15.4 µM] | -12% | 2.3 | . | 0% | -5
17 | CC(=O)n1cc([C@@H]2C=C(C(=O)O)O[C@H](OCc3ccc(CO)cc3)C2)c2ccccc21 | 8 | 20% | 5% | 8.2 | 0.8% | -3% | -1
18 | O=C(Nc1ccc(C(=O)N2CCOCC2)cc1)c1ccccc1 | . | . | 4% | . | 1.8% | . | 3
19 | O=C(NCc1ccc(Cl)cc1Cl)C(=O)N1CCCCC1 | -5 | -8% | 2% | 5.2 | -0.2% | -7% | 16
20 | O=C(COC(=O)COc1ccccc1)NC12CC3CC(CC(C3)C1)C2 | -2 | -2% | 4% | . | 0.3% | . | .
21 | O=C1C=C(NCCN2CCOCC2)C(=O)c2cnccc21 | 12 | . | . | 0.2 | . | -9% | .
22 | CSc1ccc(/C=C/C(=O)c2ccc(NC(=O)Cc3ccccc3)cc2)cc1 | -3 | -1% | -8% | 11 | 1.4% | 7% | -7
23 | Cc1ccc(NS(=O)(=O)c2cccc(C(=O)N3CCN(c4ncccn4)CC3)c2)cc1 | 2 | 13% | -9% | . | -7.6% | . | -4
24 | N/C(=N\OC(=O)c1ccccc1)C(C(=O)NOC(=O)c1ccccc1)C1CCCCC1 (stereo not drawn) | . | -21% | 4% | . | . | . | 4
25 | Cc1ccccc1N1CCN(S(=O)(=O)c2cccs2)CC1 | 6 | 5% | 1% | . | -1.3% | -7% | 13
26 | CS(=O)(=O)c1ccc(Cl)c(NC(=O)C2CCCCN2S(=O)(=O)c2ccccc2)c1 (stereo not drawn) | -1 | ? | -21% | . | -0.9% | . | -6
27 | COc1ccc(-c2n[nH]c(=S)n2Cc2ccco2)cc1 | 7 | -4% | -23% | 2.2 | -8.0% | -1% | 6
28 | CCC(=O)Nc1cccc(NC(=S)NC(=O)Cc2ccccc2)c1 | 5 | -2% | 0% | 2.1 | -1.0% | 0% | 2
29 | CCOc1cc2c(cc1/C=C/C(=O)O)OC(C)C2 (stereo not drawn) | 21 | 24% | -5% | -1.7 | 4.5% | 19% | 6
30 | Cc1ccc(S(=O)(=O)N2CCC(=O)N(CCOCc3cccc(C)c3)CC2)cc1 | -18 | . | -3% | 7.6 | 1.1% | -9% | 4
31 | Nc1nc(Nc2ccccc2)nc(N2CCCC2)c1[N+](=O)[O-] | 7 | ? | -8% | -5.5 | 0.9% | 5% | -15
32 | CCOc1ccccc1OC(C)C(=O)Nc1ccc(S(=O)(=O)N2CCCC2)cc1 (stereo not drawn) | 1 | -55%[inhibitor] | -5% | . | 1.5% | 6% | 0
33 | CNC(=O)NC(=O)C(C)OC(=O)c1c(C)noc1C (stereo not drawn) | -3 | -23% | 4% | 3.8 | -1.3% | -8% | 0
34 | COc1ccc(C(=O)N/C(=C/c2ccc(Cl)cc2)C(=O)NCc2ccncc2)cc1 | -19 | 5% | -6% | 2.5 | . | 15% | ?
35 | CC(C)(C)NC(=S)Nc1ccc(Nc2ccccc2)cc1 | -7 | -22% | -15% | 4.0 | 1.3% | ? | -18
36 | Cc1cccc(N2CCN(C(=O)c3ccc4[nH]c(C)c(C)c4c3)CC2)c1C | . | 25%[15.4 µM] | 4% | . | -2.1% | . | -19
37 | Cc1cc([N+](=O)[O-])nn1Cc1ccc(C(=O)N/N=C/c2ccc(N(C)C)cc2)cc1 | 3 | 4%[15.4 µM] | -31% | -1.0 | -0.8% | 6% | -9
38 | COc1ccc(CNC(=O)c2c(C)cc(=O)oc2C)cc1 | 5 | -1%[15.4 µM] | 12% | 1.3 | . | -2% | 18
39 | COc1ccccc1C1CC(=O)Oc2cc(C)c(Br)c(C)c21 (stereo not drawn) | . | . | -21% | 1.7[94.6 µM] | -3.7% | -23% | -5
40 | Cc1ccc(S(=O)(=O)NCCCNS(C)(=O)=O)cc1 | -16 | 21% | 6% | 0.3 | -1.4% | 16% | 4
41 | O=C(Nc1ccc2oc(-c3ccccc3)nc2c1)c1ccncc1 | -8 | 3% | -17% | 1.0 | 5.7% | 18% | -1
42 | N#Cc1c(N)n(-c2ccc(N)cc2)c2nc3ccccc3nc12 | . | -6%[15.4 µM] | 13% | 5.8 | . | 4% | -24
43 | Cc1cc(C(=O)N/N=C/c2cc(Br)cc([N+](=O)[O-])c2O)c2ccccc2n1 | 16 | -3% | -1% | 11 | -2.2% | -2% | -94*
44 | COc1cccc(NC(=S)NC(=O)c2cncc(Br)c2)c1 | . | 17% | -10% | . | -0.7% | . | 2
45 | CCOCCn1c(=O)c2c(nc3n2CC(C)CN3Cc2ccccc2)n(C)c1=O (stereo not drawn) | -5 | -2% | -18% | -0.4 | -0.2% | -4% | -2
46 | CN(C)C1=NC[C@H](Cc2ccccc2)N1CC1CCC(C(C)(C)C)CC1 (stereo partly drawn) | -12 | . | 10% | -3.2 | -2.7% | 13% | 1
47 | O=C(NNC(=O)C12CC3CC(CC(C3)C1)C2)c1ccccc1F | -19 | -6%[15.4 µM] | 12% | -3.7 | . | -2% | -2
48 | COc1ccc(CCNC(=O)C(=O)NCC2OCCN2S(=O)(=O)c2ccc(F)cc2)cc1 (stereo not drawn) | 14 | 0% | 0% | 1.0 | 1.6% | 12% | 22
49 | CCCCNC(=O)CCn1c(=O)c2ccccc2n(Cc2ccc(F)cc2)c1=O | -19 | -4% | 19% | 5.0 | -7.8% | 2% | -7
50 | Cc1ccc(NC(=O)CN2C(=S)NC(C)(C)CC2C)cc1Cl (stereo not drawn) | -6 | 10%[15.4 µM] | -1% | 2.3 | 0.4% | 6% | -4
51 | CC(=O)N(C(C)=O)c1ccc2c(c1)OCCO2 | . | 11% | . | . | -0.7% | . | 3
52 | COc1cc(C)c(NC(=O)C(=S)N2CCCC2)cc1C | -16 | 17%[15.4 µM] | -40% | -1.5 | . | 14% | 20
53 | CCC(=O)c1ccc(OC)c(OC)c1O | 30 | -10% | 6% | 4.4 | -1.4% | 11% | .
54 | O=C(Nc1cc(S(=O)(=O)N2CCOCC2)ccc1N1CCCC1)c1cnccn1 | 0 | 27% | -13% | 0.1 | 3.5% | 0% | 5
55 | COc1ccc(CCNC(=O)C2C3CCC(C3)C2C(=O)O)cc1OC (stereo not drawn) | 2 | 16%[15.4 µM] | 2% | 0.2 | -21% | 6% | 2
56 | Cc1ccc(N2CC(C(=O)Nc3nnc(SCc4ccccn4)s3)CC2=O)cc1 (stereo not drawn) | -3 | -65%[inhibitor] | -4% | -0.7 | -1.2% | 18% | -4
57 | CC1Cc2ccccc2N1C(=O)CN1C(=O)NC(C)(CCc2ccccc2)C1=O (stereo not drawn) | 13 | 3% | 6% | . | 4.1% | 2% | -3
58 | CCN(CC)CCN1C(=O)c2oc3ccc(F)cc3c(=O)c2C1c1ccncc1 (stereo not drawn) | 1 | ? | 8% | 12 | 4.7% | -1% | 6
59 | CCC(C)[C@H](NC(=O)Nc1ccc(Oc2ccccc2)cc1)C(=O)O (stereo partly drawn) | -5 | 5% | 3% | 4.4 | 0.3% | 15% | 2
60 | Clc1ccc(-c2noc(COc3ccccc3)n2)cc1 | 5 | 26% | 0% | -1.8 | -3.6% | 22% | 1
61 | Cc1ccc(NS(=O)(=O)c2ccc3c(c2)NC(=O)CO3)c(C)c1 | 11 | -4% | -4% | . | 1.4% | 11% | .
62 | CCC(=O)Nc1nnc(S(=O)(=O)N(CC)c2ccc(OC)cc2)s1 | 3 | 18% | 0% | -1.7 | -5.1% | 13% | .
63 | O=C(COC(=O)CCCNC(=O)c1ccc(Cl)cc1)Nc1cc(Cl)c(Cl)cc1Cl | -11 | -10% | 10% | 3.3 | 0.8% | 11% | -10
